Assay outcomes (PubChem)
Vaccinia stage – blocks a specific stage of Vaccinia orthopoxvirus infection. 0.01% of 89,000 active. activity change (mCherry), % (no concentration beside the values). Vaccinia-infected cells, mCherry/Venus stage reporter fluorescence; hits give low values; some inactives read as strong as hits;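 active = mCherry past -33% and 40 or more points under the early reporter, replicates agreeing; inconclusive = past -33% without that gap or agreement; tested in A549 cells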;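 also: scaled between vehicle wells and reference inhibitor wells; 23 nL library stock went into each well; one replicate is shown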
Vaccinia stage Venus – second read-out of Vaccinia stage, no call of its own (marks repeat the call); activity change (Venus), %; measured here: Venus reporter, other viral stage;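 negative = less Venus signal; first of two replicates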
Active calls of the source: *; ? = inconclusive; / = no result given; & = joins results of further samples. This is a subset; count on the stated rates, not on these rows.

SMILES	Vaccinia stage	Vaccinia stage Venus
CCCC(=O)N1CCC2(CC1)CN(C(=O)C1CC1)[C@@H](CO)c1[nH]c3cc(OC)ccc3c12	2.7	2.3
Cc1noc(C)c1S(=O)(=O)Nc1ccc2c(c1)C(=O)N([C@@H](C)CO)C[C@H](C)[C@@H](CN(C)Cc1ccc3c(c1)OCO3)OCCCC[C@@H](C)O2	?	/
C[C@@H]1CN([C@H](C)CO)S(=O)(=O)c2ccc(-c3cccnc3)cc2O[C@@H]1CN(C)C(=O)NC1CCCCC1	13.5	0.5
CC(=O)n1cc([C@@H]2C=C(C(=O)N3CCOCC3)O[C@H](OCc3ccc(CO)cc3)C2)c2ccccc21	13.2	7.8
C[C@H]1CN([C@@H](C)CO)C(=O)Cc2cc(NS(C)(=O)=O)ccc2O[C@H]1CN(C)Cc1ccncc1	-0.1	13.4
C[C@@H]1CN([C@H](C)CO)C(=O)c2cccc(NS(=O)(=O)c3ccccc3)c2O[C@H]1CN(C)Cc1ccc(C(=O)Nc2ccccc2N)cc1	6.5	-4.8
COc1ccc(NC(=O)Nc2ccc3c(c2)C(=O)N([C@@H](C)CO)C[C@@H](C)[C@@H](CN(C)C(=O)Nc2cccc4ccccc24)OCCCC[C@H](C)O3)cc1	38.2	17.2
CC(C)C#Cc1ccc([C@H]2[C@@H](CO)N3CCCCN(S(=O)(=O)Cc4ccccc4)C[C@@H]23)cc1	?	/
CN1C(=O)c2cc(NC(=O)C3CCCC3)ccc2OC[C@H]2O[C@@H](CC(=O)NCC(F)(F)F)CC[C@H]21	-9.9	-9.1
O=C(c1cccnc1)N1C[C@H]2[C@@H](c3ccccc31)[C@@H](CO)N2C(=O)Nc1ccccc1Cl	7.7	17.4
Cc1ccc(S(=O)(=O)Nc2ccc3c(c2)C(=O)N([C@H](C)CO)C[C@@H](C)[C@@H](CN(C)Cc2ccc(Cl)c(Cl)c2)O3)cc1	?	/
CCCN(C)C[C@H]1Oc2cc(C#Cc3ccccc3)ccc2S(=O)(=O)N([C@@H](C)CO)C[C@H]1C	-21.7	-28.6
COCc1cn(CC[C@H]2CC[C@H](NC(=O)Cc3cccnc3)[C@H](CO)O2)nn1	14.9	14.9
C[C@@H]1CCCCO[C@@H](CN(C)Cc2ccc3c(c2)OCO3)[C@@H](C)CN([C@@H](C)CO)C(=O)c2cc(NC(=O)c3ccccc3)ccc2O1	?	/
C=CCOC(=O)C1=C[C@@H](c2csc3ccccc23)C[C@@H](OCc2ccc(CO)cc2)O1	7.5	4.7
O=C(C[C@H]1CC[C@@H]2[C@H](COC[C@H](O)CN2C(=O)c2ccncc2)O1)NC1Cc2ccccc2C1	5.2	14.6
O=C(N[C@H]1C=C[C@@H](CC(=O)N2CCCCC2)O[C@H]1CO)c1ccc2c(c1)OCO2	8.7	11.6
CO[C@H]1CN(C)C(=O)c2ccc(NS(=O)(=O)CC(F)(F)F)cc2OC[C@H](C)N(C)C[C@H]1C	6.9	7.3
CN(C)C(=O)C[C@H]1CC[C@H]2[C@@H](COC[C@H](O)CN2C(=O)C2CC2)O1	3.2	7.3
O=C(Nc1cc(F)ccc1F)N[C@H]1CC[C@@H](CCn2cc(C3CCCCC3)nn2)O[C@@H]1CO	-24.2	-19.4
C[C@@H]1CN([C@@H](C)CO)C(=O)c2cc(NC(=O)Nc3ccccc3)ccc2O[C@H]1CN(C)S(=O)(=O)c1cccs1	4.8	12.9
COc1ccc(C(=O)Nc2ccc3c(c2)OC[C@H](C)N(C)C[C@@H](C)[C@H](OC)CN(C)C3=O)cc1	2.7	7.9
O=C(C1CC1)N1C[C@H]2[C@@H](c3ccccc31)[C@@H](CO)N2C(=O)c1cccc(F)c1	1.4	0.0
O=C(N[C@H]1CC[C@H](CCNS(=O)(=O)c2ccccc2Cl)O[C@H]1CO)c1ccc(F)cc1	-2.4	4.7

Laid out differently: entries from further up.
| SMILES | Vaccinia stage | Vaccinia stage Venus |
| --- | --- | --- |
| COc1ccc(NC(=O)Nc2ccc3c(c2)C(=O)N([C@@H](C)CO)C[C@@H](C)[C@@H](CN(C)C(=O)Nc2cccc4ccccc24)OCCCC[C@H](C)O3)cc1 | 38.2 | 17.2 |
| C=CCOC(=O)C1=C[C@@H](c2csc3ccccc23)C[C@@H](OCc2ccc(CO)cc2)O1 | 7.5 | 4.7 |
| COCc1cn(CC[C@H]2CC[C@H](NC(=O)Cc3cccnc3)[C@H](CO)O2)nn1 | 14.9 | 14.9 |
| CC(=O)n1cc([C@@H]2C=C(C(=O)N3CCOCC3)O[C@H](OCc3ccc(CO)cc3)C2)c2ccccc21 | 13.2 | 7.8 |

(list continues)
SMILES	Vaccinia stage	Vaccinia stage Venus
COc1ccc(S(=O)(=O)Nc2ccc3c(c2)CC(=O)N([C@@H](C)CO)C[C@H](C)[C@H](CN(C)S(C)(=O)=O)O3)cc1	8.7	-4.0
C[C@H](CO)N1C[C@H](C)[C@@H](CN(C)Cc2ccc(-c3ccccc3)cc2)Oc2ccc(NC(=O)CCN3CCOCC3)cc2C1=O	1.6	-9.5
C[C@H](CO)N1C[C@H](C)[C@H](CN(C)C(=O)Nc2ccc3c(c2)OCO3)Oc2ccc(NC(=O)c3ccncc3)cc2C1=O	41.6	11.6
O=C(Nc1cc(F)ccc1F)N[C@@H]1CC[C@H](CCn2cc(C3CCCC3)nn2)O[C@H]1CO	-7.9	-2.4
CN1C(=O)c2cc(NC(=O)C3CCCC3)ccc2OC[C@H]2O[C@@H](CC(=O)NCc3ccccc3F)CC[C@H]21	-2.5	-7.5
C[C@@H](NC(=O)C[C@@H]1CC[C@@H]2[C@H](COC[C@H](O)CN2C(=O)Nc2cccc(Cl)c2)O1)c1ccccc1	-12.7	-14.4
CN(C)C(=O)C[C@H]1CC[C@H](NC(=O)C2CCC2)[C@H](CO)O1	0.6	2.2
COc1ccc(CN(C)C[C@H]2Oc3ccc(NS(=O)(=O)c4ccc(Cl)cc4)cc3CC(=O)N([C@@H](C)CO)C[C@H]2C)cc1	?	/
CC(=O)N(C)C[C@H]1Oc2ncc(C#C[C@@H](C)O)cc2C(=O)N([C@@H](C)CO)C[C@@H]1C	15.6	1.5
C[C@H](CO)N1C[C@H](C)[C@H](CN(C)C)Oc2cc(-c3ccncc3)ccc2S1(=O)=O	13.0	-2.4
CN1C(=O)c2cc(NC(=O)c3ccc(F)cc3)ccc2OC[C@@H]2O[C@H](CC(=O)N3CCOCC3)CC[C@@H]21	1.6	-2.2
CC(C)c1cn(CC[C@@H]2CC[C@@H](NC(=O)C3CC3)[C@H](CO)O2)nn1	-1.8	2.0

Reformatted: 2 of the compounds above
Molecule: CN(C)C(=O)C[C@H]1CC[C@H](NC(=O)C2CCC2)[C@H](CO)O1
- Vaccinia stage: 0.6
- Vaccinia stage Venus: 2.2

Molecule: COc1ccc(CN(C)C[C@H]2Oc3ccc(NS(=O)(=O)c4ccc(Cl)cc4)cc3CC(=O)N([C@@H](C)CO)C[C@H]2C)cc1
- Vaccinia stage: ?
- Vaccinia stage Venus: /

(listing goes on)
SMILES	Vaccinia stage	Vaccinia stage Venus
CC(C)NC(=O)N[C@@H]1CC[C@@H](CCN)O[C@@H]1CO	-0.5	-0.4
CCCNC(=O)N[C@H]1CC[C@@H](CC(=O)NC2CCC2)O[C@@H]1CO	-8.6	-10.3
CC(C)NC(=O)Nc1ccc2c(c1)C(=O)N([C@@H](C)CO)C[C@@H](C)[C@H](CN(C)S(=O)(=O)c1cccs1)OCCCC[C@H](C)O2	14.0	11.2
CCCC#Cc1ccc2c(c1)O[C@H](CN(C)C(=O)c1ccccc1F)[C@@H](C)CN([C@H](C)CO)S2(=O)=O	-11.9	-14.4
CC(C)NC(=O)Nc1ccc2c(c1)CC(=O)N([C@@H](C)CO)C[C@@H](C)[C@@H](CN(C)S(=O)(=O)c1ccc(Cl)cc1)O2	-8.3	-7.4
Cc1ccc(S(=O)(=O)Nc2ccc3c(c2)C(=O)N([C@H](C)CO)C[C@H](C)[C@@H](CN(C)S(C)(=O)=O)O3)cc1	8.3	5.7
O=C(C[C@H]1C=C[C@@H](NC(=O)c2ccccn2)[C@H](CO)O1)NCc1cccc(F)c1	2.5	2.9
CNC[C@@H]1Oc2cc(C#Cc3cccc(F)c3)ccc2S(=O)(=O)N([C@H](C)CO)C[C@H]1C	?	/
O=C(C[C@H]1CC[C@@H]2[C@H](COC[C@H](O)CN2S(=O)(=O)c2ccc(Cl)cc2)O1)NCCN1CCCC1	3.4	7.0
CC(C)NC(=O)Nc1ccc2c(c1)CC(=O)N([C@H](C)CO)C[C@H](C)[C@@H](CN(C)S(=O)(=O)c1ccc(Cl)cc1)O2	-5.0	1.6
COc1ccccc1NC(=O)N1C[C@@H](O)COC[C@H]2O[C@H](CC(=O)NCCc3ccccc3)CC[C@@H]21	-0.8	-8.6
COc1ccc2c3c([nH]c2c1)[C@H](CO)N(C(=O)CN1CCOCC1)CC31CN(Cc2ccccc2)C1	0.6	-9.5
O=C(C[C@@H]1CC[C@@H]2[C@H](COC[C@@H](O)CN2Cc2ccc3c(c2)OCO3)O1)N1CCOCC1	31.6	23.2
CCCNC(=O)[C@@H]1[C@@H](CO)[C@@H]2Cn3c(ccc(-c4cccc(OC)c4)c3=O)[C@H]1N2CC	7.9	7.6
COc1ccccc1CN1C[C@@H](C)[C@H](OC)CN(C)C(=O)c2cc(NC(=O)Nc3ccccc3OC)ccc2OC[C@H]1C	-34.4	-17.1
CCCNC(=O)Nc1ccc2c(c1)C(=O)N(C)C[C@@H](OC)[C@H](C)CN(Cc1cncnc1)[C@@H](C)CO2	14.9	9.8
C[C@@H]1CN([C@@H](C)CO)C(=O)c2cc(NC(=O)Cn3cnnn3)ccc2O[C@@H]1CN(C)S(=O)(=O)c1cccs1	8.8	-0.6
CN(C)CCCNC(=O)C[C@H]1CC[C@@H]2[C@H](COC[C@@H](O)CN2CC2CCCC2)O1	-4.2	3.4
C[C@H]1CN([C@@H](C)CO)C(=O)c2cc(C#CC3CC3)cnc2O[C@@H]1CN(C)C(=O)Nc1ccc(F)cc1	-8.4	-0.6
COc1ccccc1CNC(=O)C[C@H]1CC[C@@H](NC(=O)CN(C)C)[C@H](CO)O1	14.9	9.5
C[C@H](CO)N1C[C@H](C)[C@H](CN(C)Cc2ccccn2)Oc2ncc(-c3ccc(C#N)cc3)cc2C1=O	4.1	5.2
C[C@H]1CN([C@@H](C)CO)S(=O)(=O)c2ccc(C#CC(C)(C)O)cc2O[C@H]1CN(C)C	2.7	2.2
CO[C@@H]1CN(C)C(=O)c2cc(NC(=O)C3CCOCC3)ccc2OC[C@H](C)N(C)C[C@H]1C	7.9	7.9
COc1ccccc1NC(=O)N(C)C[C@H]1OCc2cnnn2CCCC(=O)N([C@@H](C)CO)C[C@@H]1C	-25.6	-20.0
C[C@@H]1CN([C@@H](C)CO)S(=O)(=O)c2ccc(-c3ccccc3)cc2O[C@@H]1CN(C)C(=O)C1CCCCC1	?	/
O=C(C[C@@H]1C[C@@H]2c3cc(NC(=O)CC4CC4)ccc3O[C@@H]2[C@@H](CO)O1)NCc1ccc(-c2ccccc2)cc1	-3.4	3.8
Cc1ccccc1-c1ccc(C2[C@H]3CNC[C@@H]2N3S(=O)(=O)c2ccc(F)cc2)cc1 (stereo partly drawn)	19.6&22.7	22.4&16.2
C[C@H]1CN([C@@H](C)CO)C(=O)Cc2cc(NC(=O)C3CC3)ccc2O[C@H]1CN(C)Cc1ccc(Cl)c(Cl)c1	?	/
CC(C)NC(=O)Nc1cccc2c1O[C@@H](CN(C)C(=O)Nc1ccc3c(c1)OCO3)[C@@H](C)CN([C@@H](C)CO)C2=O	3.0	-0.6
C[C@H](CO)N1C[C@H](C)[C@@H](CN(C)C(=O)Nc2cccc3ccccc23)Oc2c(NC(=O)C3CCOCC3)cccc2C1=O	22.1	21.2
CCCNC(=O)N1CC2(CN(S(=O)(=O)c3ccccc3)C2)c2c(n(C)c3cc(OC)ccc23)[C@H]1CO	-12.1	-18.5
COc1ccc(C#Cc2cnc3c(c2)C(=O)N([C@H](C)CO)C[C@H](C)[C@H](CN(C)C(=O)CC2CC2)O3)cc1	2.4	6.4
CN(C)C(=O)c1cccc(-c2ccc3c(c2)[C@H]2[C@H](CCN2S(=O)(=O)c2cn(C)cn2)[C@H](CO)N3)c1	16.2	13.1
C[C@@H]1CN([C@H](C)CO)C(=O)Cc2cc(NC(=O)NC3CCCCC3)ccc2O[C@@H]1CN(C)C(=O)Nc1ccc(F)cc1	6.9	3.3
C[C@@H]1CCCCO[C@H](CN(C)C(=O)Nc2ccccc2)[C@@H](C)CN([C@H](C)CO)C(=O)c2cc(NC(=O)Nc3ccc(C(F)(F)F)cc3)ccc2O1	4.3	1.3
C[C@H]1CN([C@@H](C)CO)C(=O)c2cc(NC(=O)CCCCCC(=O)Nc3ccccc3N)ccc2O[C@@H]1CN(C)S(=O)(=O)c1ccccc1	25.3	16.5
COc1ccc(CN(C)C[C@H]2Oc3c(NS(=O)(=O)c4cn(C)cn4)cccc3C(=O)N([C@@H](C)CO)C[C@@H]2C)cc1	-1.8	-8.3
O=C(C[C@H]1C[C@@H]2c3cc(NC(=O)Nc4ccccc4)ccc3O[C@@H]2[C@@H](CO)O1)NCc1ccncc1	0.7	-1.8
C[C@H](CO)N1C[C@H](C)[C@@H](CN(C)Cc2ccccc2)Oc2ccc(N(C)C)cc2C1=O	8.1	0.6
O=C(c1cccc(F)c1)N1CCCCN2[C@H](C1)[C@@H](c1ccc(-c3ccccc3)cc1)[C@@H]2CO	-33.5	-27.9
Cc1ccc(S(=O)(=O)N(C)C[C@@H]2Oc3ccc(NS(=O)(=O)c4ccc(F)cc4)cc3CC(=O)N([C@H](C)CO)C[C@H]2C)cc1	18.9	15.1
O=C(Cc1ccccc1)N[C@H]1C=C[C@@H](CC(=O)N2CCOCC2)O[C@H]1CO	-2.8	5.6
COc1ccc(S(=O)(=O)Nc2ccc3c(c2)C(=O)N([C@H](C)CO)C[C@@H](C)[C@@H](CN(C)Cc2ccc4c(c2)OCO4)OCCCC[C@@H](C)O3)cc1	?	/
CN(C)C(=O)C[C@H]1C[C@H]2c3cc(NC(=O)Nc4ccccc4F)ccc3O[C@H]2[C@@H](CO)O1	7.9	0.4
